Mtb H37Rv: Confirmatory growth inhibition assay against Mycobacterium tuberculosis H37Rv, potency (AID 1949) | most inactive calls were filed without a number and no value below 0 was filed | inhibition, % at 10 µg/mL; hits with a dose series show IC50 in µg/mL | 100,000 compounds, 1.6% hits;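 active = confirmed in a dose series; inconclusive = about 50% or more but not retested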;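 note: bacteria grown 7 days with compound before Alamar blue readout; 0% = untreated bacteria and 100% = reference antibiotic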
* hit, by the source's call; i = inactive; ? = inconclusive. A portion of the library. The share of hits here may be higher or lower than overall.

SMILES	Mtb H37Rv
CC(C)CNC(=O)c1cccc(NC(=O)COc2ccc(Cl)cc2Cl)c1	i
Cc1ccc(NC(=O)c2cnccn2)c([N+](=O)[O-])c1	i
CN(C)S(=O)(=O)c1ccc(C(=O)Nc2ccc(-c3ccccc3)cc2)cc1	i
COc1cccc(C(=O)NC(c2ccc(Cl)cc2)c2ccc(Cl)cc2)c1	i
COc1ccc(NC2=NS(=O)(=O)c3ccccc32)c(OC)c1	i
O=[N+]([O-])c1ccc2nc3c(cc2c1)COc1ccccc1-3	i
O=C(Nc1ccc2c(c1)OCO2)c1cc(-c2ccccc2)nc2ccccc12	i
COc1cc(OC)c(NC(=O)C2CC2c2ccc(C(C)(C)C)cc2)cc1Cl (stereo not drawn)	i
CCc1cc2c(=O)c(Oc3ccc(F)cc3)c(C)oc2cc1OC(C)=O	i
O=C(CN1C(=O)c2ccccc2C1=O)N1CCN(C/C=C/c2ccccc2)CC1	i
COc1cc(C(=S)N2CCCCC2)ccc1OCC(=O)Nc1ccc(F)cc1	2%
COc1ccc(OCC(C)=O)c(C#N)c1	i
CCN(CC)C(=O)CSc1ccccc1N	7%
CCN1C(=O)/C(=C/c2cc(Cl)cc(Cl)c2OCCOc2ccccc2OC)SC1=S	i
Cc1noc(C)c1C(=O)NCCc1ccc(Cl)cc1	i
CCOc1cc(C(=O)NC(=S)Nc2ccc(Cl)c(C(=O)OC)c2)cc(OCC)c1OCC	i
O=C(Nc1ccccc1N1CCN(C(=O)c2ccccc2)CC1)c1cccs1	3%
C=CCn1c(SCc2nnc(-c3ccccc3)o2)nnc1C(O)c1ccccc1 (stereo not drawn)	i
Cc1ccccc1OCCn1c(CCCO)nc2ccccc21	i
O=C(Nc1ccc([N+](=O)[O-])cc1)c1cncc(Br)c1	1%
CCCC(=O)Oc1ccc(C(=O)OC)cc1	i
CN(c1cccc(NC(=O)c2cccc([N+](=O)[O-])c2)c1)S(C)(=O)=O	i
COc1cc(NC(=O)CN2C(=O)c3ccc([N+](=O)[O-])cc3C2=O)c(C(=O)O)cc1OC	i
CCOC(=O)Nc1cccc(C(=O)O)c1	i
CCOc1ccc(S(=O)(=O)Nc2sc3c(c2C(=O)OC)CCCC3)cc1	i
SMILES	Mtb H37Rv
CCc1cccc(CC)c1NC(=O)CCCc1ccccc1	i
O=c1c(-c2cccc3ccccc23)[n+]([O-])c2ccccc2n1OCc1cccc(F)c1	i
COc1ccc(NC(=O)N2CCN(C(c3ccccc3)c3ccccc3)CC2)cc1OC	i
Cc1nnc(SCc2c(C)cc(C)c(CSc3nnc(C)s3)c2C)s1	i
Cc1ccc(C(=O)Nc2cc(Cl)c(Cl)cc2Cl)cc1Br	i
O=C(CCN1C(=O)c2ccccc2S1(=O)=O)Nc1nc2c(s1)CCCC2	i
O=C1CCCC2=C1C(c1cccs1)n1ncnc1N2 (stereo not drawn)	i
CC(=O)c1c(N2CCN(Cc3ccc4c(c3)OCO4)CC2)nc(=S)n(-c2ccccc2)c1C	i
NCCCNC(=O)c1cc2ccccc2[nH]1	i
Cc1ccccc1C(=O)NNC(=O)c1ccc(NC(=O)C(C)C)cc1	i
O=C(CN(c1ccc(I)cc1)S(=O)(=O)c1ccccc1)Nc1cccnc1	i
Fc1ccccc1NC(=S)Nc1ccc2nccnc2c1	i
O=C(/C=C/c1ccccc1)NC(=S)Nc1cccc2ccccc12	i
COc1cc(C(=O)NCCNc2ccc(C(F)(F)F)cc2[N+](=O)[O-])cc(OC)c1OC	i
O=[N+]([O-])c1ccc(CN2CCN(S(=O)(=O)c3ccc4ccccc4c3)CC2)cc1	i
O=C(c1ccccc1)C(Sc1ncccn1)c1ccccc1 (stereo not drawn)	i
Clc1ccc(Cn2cc(Br)cn2)cc1Cl	i
CCOc1ccccc1NC(=O)Cc1ccc(OC)c(OC)c1	i
COc1cc(C2NC(=S)NC(c3ccccc3)=C2C(C)=O)cc(I)c1O (stereo not drawn)	i
COc1ccc(NC(=O)CSc2nnc(-c3ccc(Br)cc3)n2C)cc1	i
Cc1onc(-c2ccccc2Cl)c1C(=O)Nc1ccc2c(c1)oc1ccccc12	i
Cc1ccc(S(=O)(=O)N(CC(=O)Nc2ccccc2C(C)C)c2ccc(C)cc2C)cc1	8%
Cc1cc2c(cc1C)C(c1cc(F)ccc1F)CC(=O)N2 (stereo not drawn)	i
CCOC(=O)c1c(-c2ccc(C)cc2)csc1NC(=O)Cc1ccc([N+](=O)[O-])cc1	i
c1cncc(-c2nnc(SCc3cccc4ccccc34)o2)c1	i
SMILES	Mtb H37Rv
Cc1ccc(C(=O)NCC2OCCc3ccccc32)cc1 (stereo not drawn)	6%
COc1ccc(Cl)cc1C(=O)Nc1sc2c(c1C(N)=O)CCCCCC2	i
c1ccc2c(c1)nc(-c1ccc3c(c1)OCO3)n2Cc1ccc2c(c1)OCO2	i
Cc1ccc(S(=O)(=O)NCc2ccc3c(c2)OCO3)cc1	11%
COc1ccccc1NC(=O)c1ccc(NC(=O)Cc2ccc(Cl)cc2)cc1	i
CCCCn1cnc2scc(-c3ccc(Br)cc3)c2c1=O	26%
COc1ccc(CCNC2CC(=O)N(N(C)C)C2=O)cc1OC (stereo not drawn)	i
CCOc1ccccc1OCCCOc1ccc(Cl)cc1Br	18%
Nc1ncnc(Nc2cc(C(F)(F)F)ccc2Cl)c1[N+](=O)[O-]	4%
Cc1ccc(S(=O)(=O)N2CCN(CC(O)COc3ccc4ccccc4c3)CC2)cc1 (stereo not drawn)	?
S=C(NCc1ccccc1)N1CCN(Cc2ccc3c(c2)OCO3)CC1	i
CCCCNC(=O)c1cc2c(C)nn(-c3ccccc3)c2s1	i
Cc1cccc(Nc2nc(N)nc(CN3CCN(c4cccc(Cl)c4)CC3)n2)c1	0.39µg/mL*
CS(=O)(=O)N(CC(=O)NC1CC1)c1ccccc1Cl	i
COc1ccc2c(=O)c(-c3ccccc3Cl)c(C(F)(F)F)oc2c1OC	i
CCOC(=O)c1ccc(NS(=O)(=O)c2ccc(C)cc2)cc1	i
Cc1ccc(SCCNC(=O)C(C)C)cc1	i
COc1cccc(C(=O)Nc2ccc(Cl)cc2C)c1OC	7%
C=CCN1C(=O)C(CC(=O)Nc2ccc(Cl)cc2)N(CCc2ccc(OC)cc2)C1=S (stereo not drawn)	3%
CC(C)c1ccc(OCC(=O)N(C)C2(C)CCS(=O)(=O)C2)cc1 (stereo not drawn)	1%
COC(=O)C1=CN(Cc2ccc(OC)cc2)C=C(C(=O)OC)C1c1cc(OC)c(OC)cc1OC	i
O=C(NCCc1ccc(F)cc1)c1cc(Cl)ccc1Cl	3%
CCOc1ccc(N(CC(=O)NCCCOC)S(=O)(=O)c2ccc(OC)c(OC)c2)cc1	i
Cc1nnc2sc(-c3ccc(NC(=O)COc4ccc(Br)cc4)cc3)nn12	i
COc1ccccc1NC(=O)CSc1nc(O)c(NC(C)=O)c(=O)[nH]1	i

The closing 3 entries of the part above open the next one:
SMILES	Mtb H37Rv
CCOc1ccc(N(CC(=O)NCCCOC)S(=O)(=O)c2ccc(OC)c(OC)c2)cc1	i
Cc1nnc2sc(-c3ccc(NC(=O)COc4ccc(Br)cc4)cc3)nn12	i
COc1ccccc1NC(=O)CSc1nc(O)c(NC(C)=O)c(=O)[nH]1	i
CCOc1cccc2cc(C(=O)Nc3cc(C)on3)c(=O)oc12	i
O=C1c2cccc3cc([N+](=O)[O-])cc(c23)C(=O)N1Cc1ccccc1	46%
O=c1c2ccccc2[nH]c(=S)n1Nc1ccccc1	i
CC(C(=O)NCc1ccccc1Cl)c1ccc([N+](=O)[O-])cc1 (stereo not drawn)	3%
CCc1ccc(CNCC2CCCO2)cc1 (stereo not drawn)	0%
COc1cc(/C=C/c2ccc3cccc(OC(C)=O)c3n2)c(OC(C)=O)c([N+](=O)[O-])c1	i
N#C/C(=C\c1cccc(Cl)c1)c1nc2ccccc2c(=O)[nH]1	i
NS(=O)(=O)c1ccc(CNC(=O)Cc2cccs2)cc1	i
COc1ccc(CNC(=S)NCCc2ccccc2)cc1	i
COC(=O)Cc1c(C)c2ccc(OCC(=O)c3ccc(N4CCCC4)cc3)cc2oc1=O	21%
O=C(CC12CC3CC(CC(C3)C1)C2)Nc1ccc2oc(=O)ccc2c1	i
COC(=O)c1ccc(S(=O)(=O)N2CCCC2)o1	i
Cc1ccnc(NC(c2ccc3cccnc3c2O)c2c(C)cc(C)cc2C)c1 (stereo not drawn)	1%
CCn1c(SCC(=O)Nc2ccc(C)cc2)nnc1-c1ccccc1Br	i
O=C(NCCc1ccccc1)c1ccccc1NS(=O)(=O)c1cc(Cl)ccc1Cl	4%
O=C(CSc1nc(O)cc(=O)[nH]1)N1CCOCC1	i
CCC(C)Oc1ccc(C(=O)NC(=S)Nc2ccc(NC(=O)c3ccccc3)c(C)c2)cc1 (stereo not drawn)	i
O=C(O)c1ccc(S(=O)(=O)c2ccc3c(c2)C(=O)N(Cc2ccccc2)C3=O)cc1	i
N=C(c1ccc(Cl)cc1)N1CCCCC1	i
CCCCC(=O)Nc1ccc(NC(=S)NC(=O)c2ccc(C)cc2)cc1OC	i
Cc1ccc(NC(=O)c2ccc(C)o2)c(Br)c1	3%
COc1cc(C2C(C(=O)OC(C)C)=C(C)N=C3SCCC(=O)N32)ccc1OC(C)=O (stereo not drawn)	i
CCCOc1ccc2nc(NC(=O)OC)sc2c1	i
O=C(c1cccnc1)N1CCN(C2CCN(Cc3ccccc3)CC2)CC1	2%
COc1cc(SC)ccc1C(=O)NCCOc1ccccc1-c1ccccc1	i

Molecules from the list above that contain a cyano group (2):
SMILES	Mtb H37Rv
COc1ccc(OCC(C)=O)c(C#N)c1	i
N#C/C(=C\c1cccc(Cl)c1)c1nc2ccccc2c(=O)[nH]1	i

Pulled by structure from the list above, 5 records:
SMILES	Mtb H37Rv
O=C(CSc1nc(O)cc(=O)[nH]1)N1CCOCC1	i
O=C(NCCc1ccccc1)c1ccccc1NS(=O)(=O)c1cc(Cl)ccc1Cl	4%
CC(C(=O)NCc1ccccc1Cl)c1ccc([N+](=O)[O-])cc1 (stereo not drawn)	3%
COc1cc(SC)ccc1C(=O)NCCOc1ccccc1-c1ccccc1	i
COc1ccc(CNC(=S)NCCc2ccccc2)cc1	i

The list continues.
SMILES	Mtb H37Rv
NC(=O)c1ccc(NC(=O)CCC2CCCC2)cc1	i
O=C(COc1ccc([N+](=O)[O-])cc1)Oc1ccc2ccccc2c1	i
Cc1ccc(CN(CC(=O)NC2CCCCC2)S(=O)(=O)c2ccc(Cl)cc2)cc1	i
CC1CCN(C(=O)CN(c2ccccc2)S(C)(=O)=O)CC1	i
N#Cc1ccc(C(=O)Nc2cccc3ccccc23)c(F)c1	i
CCc1c(C)sc(NC(=S)Nc2cnn(CC)c2C(N)=O)c1C(=O)OC	i
O=C(COc1ccccc1)N1CCN(CCN2C(=O)c3cccc4cccc(c34)C2=O)CC1	i
CCOC(=O)c1c(NC(=O)COc2cc(C)ccc2C)sc(C(C)=O)c1C	4%
C=CCn1c(CC(=O)Nc2cccc(OC)c2)nnc1SCC(=O)Nc1cccc(SC)c1	5%
Clc1ccccc1COc1ccc2ccccc2c1CNCc1cccnc1	8.8µg/mL*
CCOC(=O)Cn1cc(Br)c(=O)[nH]c1=O	i
CC(NC(=O)c1ccc(Cl)s1)C1CCCO1 (stereo not drawn)	i
CC(=O)c1cccc(NC(=O)Cc2ccccc2[N+](=O)[O-])c1	i
O=[N+]([O-])c1ccc2c(c1)ncn2C1CCCCC1	i
Cn1cccc1CN1CCN(C(=O)c2cccc(F)c2)CC1	i
CCN(CC)S(=O)(=O)c1ccc(NC(=O)c2ccc(CN3CCOCC3)cc2)cc1	i
CC(=O)OCC(=O)c1ccc(Br)cc1	i
COc1ccc(C(C)C)cc1S(=O)(=O)Nc1ccccn1	i
Cc1ccc(C)c(N2CC(C(=O)Nc3cccc([N+](=O)[O-])c3)CC2=O)c1 (stereo not drawn)	i
O=C(CN1CCc2ccccc2C1)Nc1ccc(S(=O)(=O)N2CCOCC2)cc1	2%
Cc1cc(NC(=O)Cc2ccc(Br)cc2)no1	i
CC(=O)c1cccc(NC(=S)Nc2ccn(Cc3cccc4ccccc34)n2)c1	i
COc1ccc(C2(C(=O)Nc3ccccc3C)CCOCC2)cc1OC	i
O=C(C1=C(O)C(=O)N(CC2CCCO2)C1c1cccc(Oc2ccccc2)c1)c1ccco1 (stereo not drawn)	i
COc1cccc(C2=CC(c3cccc(F)c3)n3ncnc3N2)c1 (stereo not drawn)	1%
SMILES	Mtb H37Rv
CC(C)(C)c1ccc(-c2n[nH]c(=S)n2-c2cccc(Cl)c2)cc1	39%
COc1ccc(S(=O)(=O)N2CCC(C(=O)NCCCO)CC2)cc1C	i
O=C(CSc1nnnn1-c1ccccc1)Nc1nsc(-c2ccccc2)n1	i
CC(NC(=O)Cn1cc(C(=O)C2CC2)c2ccccc21)c1ccccc1 (stereo not drawn)	0%
CCOc1cc(-c2noc(CCC(=O)Nc3ccccc3C)n2)cc(Br)c1OC	i
Cc1cccc(C)c1NC(=O)COc1ccc2c(C)c(Cc3ccccc3)c(=O)oc2c1	6%
COC(=O)c1c(-c2ccc(F)cc2)csc1NC(=O)c1ccc(OC)cc1OC	i
O=C(CCCN1C(=O)c2ccccc2C1=O)Nc1nccs1	i
Cc1ccccc1OCCCOc1ccccc1C	i
Cn1c(=O)c2c(nc(OCc3ccc(Cl)cc3)n2Cc2ccccc2Cl)n(C)c1=O	i
C=CCn1c(SCC(=O)Nc2ccc(F)c(F)c2F)nnc1-c1cc(Br)ccc1O	i
CS(=O)(=O)N(CC(=O)N1CCCCCC1)Cc1ccc(Cl)cc1	i

Six compounds out of the list, arranged by SMILES length, rising:
SMILES	Mtb H37Rv
COc1ccc(OCC(C)=O)c(C#N)c1	i
O=C(NCCc1ccc(F)cc1)c1cc(Cl)ccc1Cl	3%
COc1cc(SC)ccc1C(=O)NCCOc1ccccc1-c1ccccc1	i
CCc1cc2c(=O)c(Oc3ccc(F)cc3)c(C)oc2cc1OC(C)=O	i
Cc1nnc2sc(-c3ccc(NC(=O)COc4ccc(Br)cc4)cc3)nn12	i
c1ccc2c(c1)nc(-c1ccc3c(c1)OCO3)n2Cc1ccc2c(c1)OCO2	i

High-throughput results: PubChem, Southern Research Institute
